Compound activity as filed in PubChem.
HIV Env fusion = HIV envelope-mediated fusion inhibition. HeLa-JRFL Env/CEM21 cell fusion, luciferase. inhibition, % at 12.3 µM. actives 1.1% (n = 360,000);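 active = mean replicate inhibition score of at least 50 and every replicate individually at or above 50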;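 note: 0% = plate neutral controls and 100% = maraviroc near 300 nM; one replicate is shown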
UUG fidelity = yeast start codon fidelity modulation | S. cerevisiae UUG-firefly luciferase reporter, luminescence/redox ratio | activity score, % at 18.7 µM | actives 0.13% (n = 350,000);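 active = replicate mean at a twofold rise or more, about +100% in these data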;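 note: firefly luciferase made from a UUG start codon reports start codon fidelity; reporter light over untreated wells divided by growth signal over untreated wells; some hits fall short of that in this replicate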
* = called active by the depositor; [ ] = dose if it differs, or a comment. This is a subset; count on the stated rates, not on these rows.

SMILES	HIV Env fusion	UUG fidelity
C[C@@H]1CN([C@@H](C)CO)C(=O)Cc2cc(NC(=O)Nc3ccc4c(c3)OCO4)ccc2O[C@@H]1CN(C)CC1CC1	-5.6[16.7 µM]	-7.9
CC(C)NC(=O)Nc1ccc2c(c1)C(=O)N([C@@H](C)CO)C[C@@H](C)[C@@H](CN(C)C(=O)Nc1ccccc1)O2	-9.6[16.7 µM]	-2.3
C[C@H](CO)N1C[C@H](C)[C@@H](CN(C)C(=O)Nc2cccc3ccccc23)Oc2ccc(NC(=O)CCN3CCOCC3)cc2C1=O	-0.8[16.7 µM]	-2.8
C[C@@H]1CN([C@@H](C)CO)C(=O)Cc2cc(NC(=O)Cc3cn(C)c4ccccc34)ccc2O[C@@H]1CN(C)C(=O)Nc1ccc2c(c1)OCO2	-11.0[16.7 µM]	5.6
C[C@@H]1CN([C@@H](C)CO)C(=O)c2cc(NC(=O)NC3CCCCC3)ccc2O[C@@H](C)CCCCO[C@@H]1CN(C)S(=O)(=O)c1ccc(Cl)cc1	-64.4[16.7 µM]	-1.7
C[C@@H]1CN([C@@H](C)CO)C(=O)c2cc(C#CCN(C)C)cnc2O[C@H]1CN(C)Cc1ccccc1F	14.9[16.7 µM]	-16.4
CC(=O)N(C)C[C@H]1Oc2ncc(C#C[C@H](C)O)cc2C(=O)N([C@@H](C)CO)C[C@H]1C	19.7[16.7 µM]	-1.2
CCCNC(=O)N(C)C[C@H]1Oc2ncc(-c3cccc(C#N)c3)cc2C(=O)N([C@@H](C)CO)C[C@@H]1C	4.0[16.7 µM]	2.3
Cc1noc(C)c1NC(=O)N(C)C[C@H]1Oc2c(NS(C)(=O)=O)cccc2C(=O)N([C@H](C)CO)C[C@@H]1C	-17.1[16.7 µM]	1.5
C[C@H](O)C#Cc1cnc2c(c1)C(=O)N([C@@H](C)CO)C[C@@H](C)[C@@H](CN(C)C(=O)c1ccc(F)cc1)O2	-1.3[16.7 µM]	5.2
C[C@H]1CN([C@@H](C)CO)C(=O)c2cc(C#CC3(O)CCCC3)cnc2O[C@@H]1CN(C)C(=O)C1CCC1	-18.4[16.7 µM]	-2.9
C[C@H]1CN([C@@H](C)CO)C(=O)Cc2cc(NC(=O)Nc3ccc(C(F)(F)F)cc3)ccc2O[C@H]1CN(C)Cc1ccc(C(F)(F)F)cc1	-2.0[16.7 µM]	10.8
C[C@H](CO)N1C[C@H](C)[C@@H](CN(C)S(=O)(=O)c2ccccc2)Oc2ccc(NC(=O)Cc3ccccc3)cc2CC1=O	27.4[16.7 µM]	16.4
C[C@H]1CN([C@@H](C)CO)C(=O)c2cc(C#CC3(O)CCCC3)cnc2O[C@@H]1CN(C)S(=O)(=O)c1cccc(F)c1	-0.2[16.7 µM]	33.7
Cc1noc(C)c1S(=O)(=O)N(C)C[C@H]1Oc2c(NS(C)(=O)=O)cccc2C(=O)N([C@@H](C)CO)C[C@H]1C	5.9[16.7 µM]	-6.1
C[C@H]1CN([C@@H](C)CO)C(=O)c2cc(C3=CCCCC3)cnc2O[C@H]1CN(C)C(=O)CN1CCOCC1	-2.7[16.7 µM]	-5.5
Cc1noc(C)c1NC(=O)Nc1ccc2c(c1)C(=O)N([C@@H](C)CO)C[C@@H](C)[C@@H](CN(C)Cc1ccccc1)OCCCC[C@@H](C)O2	-122.0[16.7 µM]	32.6
COCC#Cc1cnc2c(c1)C(=O)N([C@H](C)CO)C[C@H](C)[C@H](CN(C)C(=O)Nc1ccccc1OC)O2	13.7[16.7 µM]	-7.2
CC(C)CC#Cc1cnc2c(c1)C(=O)N([C@H](C)CO)C[C@H](C)[C@@H](CN(C)Cc1cccc(F)c1)O2	-6.9[16.7 µM]	22.8
COc1ccc(S(=O)(=O)Nc2ccc3c(c2)C(=O)N([C@H](C)CO)C[C@@H](C)[C@H](CN(C)S(=O)(=O)c2ccc(C)cc2)O3)cc1	-21.5[16.7 µM]	-12.6
O=C(CN1CCOCC1)N[C@H]1CC[C@H](CCn2cc(C3CC3)nn2)O[C@H]1CO	-0.9[16.7 µM]	-0.7
C[C@H]1CN([C@@H](C)CO)C(=O)c2cccc(NC(=O)C3CC3)c2O[C@H]1CN(C)C(=O)Nc1ccc(C(F)(F)F)cc1	18.2[16.7 µM]	10.9
O=C(NCC[C@@H]1CC[C@@H](NC(=O)c2ccccc2F)[C@@H](CO)O1)c1ccc2c(c1)OCO2	-17.7[16.7 µM]	-14.8
CN1C(=O)c2cc(NC(=O)c3cccs3)ccc2OC[C@H]2O[C@@H](CC(=O)NCCN3CCCCC3)CC[C@@H]21	-12.5[16.7 µM]	10.3
C[C@H](CO)N1C[C@H](C)[C@H](CN(C)CC2CC2)Oc2cc(C#CC3CC3)ccc2S1(=O)=O	-3.3[16.7 µM]	9.0
C[C@@H]1CN([C@H](C)CO)C(=O)c2cc(NS(=O)(=O)c3cn(C)cn3)ccc2O[C@H]1CN(C)CC1CCCCC1	-13.5[16.7 µM]	-7.3
C[C@H]1CN([C@@H](C)CO)S(=O)(=O)c2ccc(C3=CCCCC3)cc2O[C@H]1CN(C)C(=O)c1ccc(F)cc1	-13.8[16.7 µM]	0.8
C[C@@H]1CCCCO[C@@H](CN(C)Cc2ccccc2)[C@H](C)CN([C@H](C)CO)C(=O)c2cc(NS(=O)(=O)c3ccc(Cl)cc3)ccc2O1	-1.8[16.7 µM]	14.5
C[C@@H]1CN([C@@H](C)CO)C(=O)c2cccc(NS(=O)(=O)c3cn(C)cn3)c2O[C@@H]1CN(C)S(=O)(=O)c1cccs1	11.1[16.7 µM]	5.0
CCCNC(=O)N(C)C[C@@H]1Oc2ncc(-c3ccncc3)cc2C(=O)N([C@H](C)CO)C[C@H]1C	4.4[16.7 µM]	-10.6
O=C(N[C@H]1CC[C@@H](CCNC(=O)C2CCCCC2)O[C@@H]1CO)c1ccncc1	-2.9[16.7 µM]	18.1
O=C(Cc1ccccn1)NCC[C@H]1CC[C@@H](NC(=O)Nc2ccccc2)[C@@H](CO)O1	16.6[16.7 µM]	10.4
C[C@@H]1CCCCO[C@@H](CN(C)C(=O)C2CCCCC2)[C@H](C)CN([C@@H](C)CO)C(=O)c2cc(N(C)C)ccc2O1	-16.1[16.7 µM]	8.8
O=C(Nc1ccc2c(c1)[C@H]1C[C@@H](CC(=O)N3CCOCC3)O[C@H](CO)[C@H]1O2)NC1CCCCC1	-7.8[16.7 µM]	18.3
C[C@H]1CN([C@@H](C)CO)C(=O)c2cc(NC(=O)CCC(F)(F)F)ccc2O[C@@H]1CN(C)Cc1ccncc1	-6.9[16.7 µM]	-0.8
O=C(NCC[C@@H]1CC[C@@H](NC(=O)C2CCCCC2)[C@@H](CO)O1)c1ccc(F)cc1	0.3[16.7 µM]	-11.9
C[C@H]1CN([C@@H](C)CO)S(=O)(=O)c2ccc(-c3ccncc3)cc2O[C@H]1CN(C)Cc1ccc(Oc2ccccc2)cc1	34.2[16.7 µM]	1.0
C[C@@H]1CCCCO[C@@H](CN(C)S(=O)(=O)c2cccs2)[C@@H](C)CN([C@H](C)CO)C(=O)c2cc(N(C)C)ccc2O1	9.5[16.7 µM]	-2.6
COc1cccc(-c2ccc3c(c2)O[C@@H](CN(C)Cc2cccnc2)[C@@H](C)CN([C@H](C)CO)S3(=O)=O)c1	-7.7[16.7 µM]	-9.2
C[C@H](CO)N1C[C@H](C)[C@@H](CN(C)S(=O)(=O)c2cn(C)cn2)OCCCC[C@H](C)Oc2ccc(NS(=O)(=O)c3cn(C)cn3)cc2C1=O	-2.8[16.7 µM]	8.5
CC(C)NC(=O)N[C@@H]1CC[C@H](CC(=O)NCCN2CCCC2)O[C@@H]1CO	20.3[16.7 µM]	-9.6
C[C@@H]1CCCCO[C@H](CN(C)C(=O)Cc2ccccc2)[C@@H](C)CN([C@@H](C)CO)C(=O)c2cc(NC(=O)CCC(F)(F)F)ccc2O1	-39.6[16.7 µM]	12.3
COc1cccc(C#Cc2cnc3c(c2)C(=O)N([C@@H](C)CO)C[C@H](C)[C@H](CN(C)C(=O)C2CCCCC2)O3)c1	-6.0[16.7 µM]	9.9
CC(C)NC(=O)N[C@H]1CC[C@@H](CCNS(=O)(=O)Cc2ccccc2)O[C@H]1CO	-25.3[16.7 µM]	3.4
C[C@H](CO)N1C[C@H](C)[C@H](CN(C)C(=O)c2ccccc2)OCCCC[C@H](C)Oc2ccc(NC(=O)CCCCCC(=O)Nc3ccccc3N)cc2C1=O	3.7[16.7 µM]	-6.9
C=C[C@@H](C)[C@@H](OC(=O)Nc1ccc(OC)cc1)c1ccc(OCCO)cc1	-13.1[16.7 µM]	1.5
CC(C)NC(=O)Nc1ccc2c(c1)C(=O)N(C)[C@H]1CC[C@@H](CC(=O)Nc3ccccc3)O[C@H]1CO2	-9.0[16.7 µM]	-5.9
O=C(N[C@@H]1CC[C@H](CC(=O)N2CCC(Cc3ccccc3)CC2)O[C@@H]1CO)c1cnccn1	-6.9[16.7 µM]	0.0
C/C=C/c1ccc2c(c1)O[C@@H](CN(C)C(=O)c1ccccn1)[C@@H](C)CN([C@@H](C)CO)S2(=O)=O	42.5[16.7 µM]	-10.1
CCCC(=O)Nc1ccc2c(c1)C(=O)N(C)[C@H]1CC[C@@H](CC(=O)NCCCN(C)C)O[C@@H]1CO2	4.3[16.7 µM]	-27.5
C[C@@H]1CCCCO[C@@H](CN(C)Cc2ccc3c(c2)OCO3)[C@@H](C)CN([C@@H](C)CO)C(=O)c2cc(NC(=O)CCC(F)(F)F)ccc2O1	-6.0[16.7 µM]	17.5
C[C@@H]1CN([C@@H](C)CO)C(=O)c2cccc(NC(=O)Nc3ccc(F)cc3)c2O[C@H]1CN(C)Cc1ccncc1	3.8[16.7 µM]	4.9
COc1ccc(S(=O)(=O)N(C)C[C@@H]2OCCCC[C@@H](C)Oc3ccc(NC(=O)Nc4ccccc4)cc3C(=O)N([C@H](C)CO)C[C@H]2C)cc1	75.8*[16.7 µM]	-23.1
C[C@H]1CCCCO[C@@H](CN(C)C(=O)c2ccncc2)[C@@H](C)CN([C@@H](C)CO)C(=O)c2cc(NS(=O)(=O)c3ccc(F)cc3)ccc2O1	-15.1[16.7 µM]	1.8
COc1ccc(S(=O)(=O)N[C@@H]2CCCN(Cc3ccc(OCCO)cc3)C2)cc1	0.9[16.7 µM]	21.6
C[C@H](CO)N1C[C@H](C)[C@@H](CN(C)C)Oc2ncc(-c3ccc(C(=O)N(C)C)cc3)cc2C1=O	-0.9[16.7 µM]	-4.4
C[C@H](CO)N1C[C@H](C)[C@@H](CN(C)S(C)(=O)=O)Oc2c(NC(=O)Nc3cccc4ccccc34)cccc2C1=O	15.1[16.7 µM]	-9.3
CNC[C@@H]1Oc2ccc(NS(=O)(=O)c3cccs3)cc2CC(=O)N([C@H](C)CO)C[C@H]1C	2.2[16.7 µM]	-4.0
C[C@H](CO)N1C[C@H](C)[C@H](CN(C)CC2CCCCC2)Oc2ccc(NS(=O)(=O)c3cn(C)cn3)cc2CC1=O	-11.8[16.7 µM]	-13.0
O=C(C[C@H]1C=C[C@@H](NC(=O)C2CCOCC2)[C@@H](CO)O1)NCc1ccncc1	17.5[16.7 µM]	-15.8
(listing goes on)
SMILES	HIV Env fusion	UUG fidelity
COc1ccc(NC(=O)N(C)C[C@@H]2Oc3c(NS(=O)(=O)c4ccc(F)cc4)cccc3C(=O)N([C@H](C)CO)C[C@@H]2C)cc1	-112.0[16.7 µM]	5.0
Cc1ccc(S(=O)(=O)N[C@H]2CC[C@@H](CCNC(=O)c3ccc4c(c3)OCO4)O[C@@H]2CO)cc1	11.7[16.7 µM]	169.7*
C[C@@H]1CN([C@@H](C)CO)C(=O)c2cc(-c3cccnc3)cnc2O[C@@H]1CN(C)C(=O)Cc1cccnc1	1.2[16.7 µM]	6.2
C[C@H]1CCCCO[C@H](CN(C)S(=O)(=O)c2cccs2)[C@@H](C)CN([C@@H](C)CO)C(=O)c2cc(NS(=O)(=O)c3cccs3)ccc2O1	-67.7[16.7 µM]	-15.9
C[C@@H]1CCCCO[C@H](CN(C)S(=O)(=O)c2cn(C)cn2)[C@H](C)CN([C@@H](C)CO)C(=O)c2cc(NC(=O)Cc3ccccc3)ccc2O1	3.9[16.7 µM]	3.7
C[C@@H]1CCCCO[C@H](CN(C)Cc2ccccc2)[C@@H](C)CN([C@H](C)CO)C(=O)c2cc(NC(=O)C3CCCCC3)ccc2O1	-0.4[16.7 µM]	12.4
CCCN1C[C@H](C)[C@@H](OC)CN(C)C(=O)c2ccc(NC(=O)Nc3c(C)noc3C)cc2OC[C@H]1C	-7.8[16.7 µM]	2.4

3 compounds already listed, sorted by number of heavy atoms, ascending:
SMILES	HIV Env fusion	UUG fidelity
Cc1ccc(S(=O)(=O)N[C@H]2CC[C@@H](CCNC(=O)c3ccc4c(c3)OCO4)O[C@@H]2CO)cc1	11.7[16.7 µM]	169.7*
C[C@@H]1CN([C@@H](C)CO)C(=O)c2cc(-c3cccnc3)cnc2O[C@@H]1CN(C)C(=O)Cc1cccnc1	1.2[16.7 µM]	6.2
COc1ccc(NC(=O)N(C)C[C@@H]2Oc3c(NS(=O)(=O)c4ccc(F)cc4)cccc3C(=O)N([C@H](C)CO)C[C@@H]2C)cc1	-112.0[16.7 µM]	5.0

Rewritten field by field: part of the list above.
C[C@@H]1CCCCO[C@H](CN(C)S(=O)(=O)c2cn(C)cn2)[C@H](C)CN([C@@H](C)CO)C(=O)c2cc(NC(=O)Cc3ccccc3)ccc2O1
  HIV Env fusion: 3.9[16.7 µM]
  UUG fidelity: 3.7

C[C@@H]1CCCCO[C@H](CN(C)Cc2ccccc2)[C@@H](C)CN([C@H](C)CO)C(=O)c2cc(NC(=O)C3CCCCC3)ccc2O1
  HIV Env fusion: -0.4[16.7 µM]
  UUG fidelity: 12.4

CCCN1C[C@H](C)[C@@H](OC)CN(C)C(=O)c2ccc(NC(=O)Nc3c(C)noc3C)cc2OC[C@H]1C
  HIV Env fusion: -7.8[16.7 µM]
  UUG fidelity: 2.4
